Autofluor counter – flagged as autofluorescent in microsphere protease counterscreen | compound autofluorescence counterscreen, microsphere flow cytometry; stronger effect = higher value | actives 3.1% (n = 360,000) | AID 624483 | fluorescence intensity (test concentration not listed);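 active = at least 3 SD above the mean of all compounds, about 16000 in these data; inconclusive = too few beads counted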;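 also: 100 nL of 1 mM stock went into each well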
Sa ugtP lethal – compounds lethal to S. aureus RN4220 ugtP deletion mutant. growth inhibition, % (test concentration not listed). actives 0.54% (n = 330,000). OD600 growth, 16 h; some inactives read as strong as hits;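 active = z-score under -3 and OD600 up to 0.15 on both plates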;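 also: plate controls were untreated wells for no effect and antibiotic for full effect; wells of about 80 µL received 100 nL stock; the first replicate is given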
PrP 5UTR inh – suppresses PrP 5' UTR mRNA reporter expression; cell-based PrP 5' UTR mRNA reporter, plate reader; inhibition, % (no concentration beside the values); actives 0.35% (n = 340,000);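 active = every replicate at 50% or more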;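 also: 0 = median of the neutral control wells; tested in H4 reporter cells; numbers are from one replicate; inactives centre near -14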
Sa RN4220 lethal – kills Staphylococcus aureus RN4220; S. aureus RN4220 growth, OD600, 16 h; inhibition, % (no concentration beside the values); actives 0.33% (n = 330,000); AID 1259311;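 active = z-score of -3 or lower and OD600 up to 0.18 on both plates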;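 also: plate controls were untreated cells for no effect and reference antibiotic for full effect; stock transfer was 100 nL into about 80 µL; one replicate is shown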
Mtb hypoxia inh – reduces hypoxia-regulated biosensor signal in M. tuberculosis. M. tuberculosis hypoxia-regulated fluorescent reporter, fluorescence. fluorescence inhibition, % (no concentration beside the values). actives 0.1% (n = 300,000). AID 1159583;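 active = 35 to 45% if threefold the growth effect, above 45% if 1.5-fold the growth effect; inactive = the rest, general growth blockers included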;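 also: wells of about 50 µL received 100 nL stock; 0% = vehicle wells and 100% = reference inhibitor wells; whole bacteria with a GFP reporter of the hypoxia response; strong numbers were not always called active; many hits fall short of the cut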
BJeLR viability – BJeLR cell viability loss; BJeLR (HRASV12) viability, CellTiter-Glo ATP luminescence, 48 h; reference of the scale not given here; inhibition, % (test concentration not listed); actives 0.17% (n = 300,000); AID 1554;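 active = replicate mean above 50%; inconclusive = above 50% but judged a plate artefact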;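 also: 50 nL library stock added to about 25 µL; numbers are from one replicate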
Mtb hypoxia inh growth – further read-out of Mtb hypoxia inh, marked with its call; growth inhibition, %; measured here: M. tuberculosis growth (absorbance);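 0% = vehicle and 100% = reference antibiotic; read after six days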
An asterisk follows results filed as active; ? = inconclusive; nt = not tested or not shown. Rows are unselected. About 4.1% of those tested had a hit in this group.

| Compound | Mtb hypoxia inh growth | Sa RN4220 lethal | Mtb hypoxia inh | Sa ugtP lethal | BJeLR viability | Autofluor counter | PrP 5UTR inh |
| --- | --- | --- | --- | --- | --- | --- | --- |
| CSc1nc(C)cc(OCC(=O)N/N=C/c2ccccc2O)n1 | nt | nt | nt | nt | 13.8 | 2176 | -34.0 |
| CCC(C)c1ccc(NC(=S)NN2CCOCC2)cc1 (stereo not given) | 0.1 | 2.3 | 2.8 | 26.7 | -3.9 | 8970 | -29.4 |
| CCCN(CCC)c1nc(C#N)nc(N(CCC)CCC)n1 | 11.6 | -11.2 | 13.5 | 34.6 | -0.3 | 3365 | -23.4 |
| CCC(=O)c1ccc(OCC(=O)OCC(=O)Nc2cccc(S(=O)(=O)N3CCCC3)c2)cc1 | 1.4 | 3.5 | 2.4 | 0.9 | nt | 3753 | -18.6 |
| CC1CCC(NC(=O)CSc2ccc(S(=O)(=O)N(C)C)cn2)CC1 (stereo not given) | 0.1 | 6.1 | 2.3 | 2.0 | nt | 8996 | -10.5 |
| Cn1c(CCn2ccccc2=O)nc2cc(NC(=O)COc3ccccc3)ccc21 | -6.9 | -0.4 | 5.2 | 4.9 | -6.7 | 5094 | -23.7 |
| CC(Oc1ccc(F)cc1)C(=O)Nc1cc(C(F)(F)F)ccc1-n1cncn1 (stereo not given) | -0.5 | 1.6 | -4.1 | -0.8 | -1.2 | 6334 | -4.5 |
| COc1ccc(C(=O)CC(=O)Nc2ccc([N+](=O)[O-])cc2)cc1 | 1.8 | -6.9 | 3.0 | -8.6 | -0.2 | 3498 | -28.9 |
| O=c1c2ccccc2nc(COc2ccccc2)n1/N=C/c1cn[nH]c1-c1ccccc1 | nt | nt | nt | nt | -1.0 | 7997 | -14.0 |
| COc1cccc(C2(C)NC(=O)N(CC(=O)Nc3ccc(N4CCOCC4)cc3)C2=O)c1 (stereo not given) | 19.5 | 2.1 | 3.8 | 3.8 | nt | 3700 | -7.3 |
| C=CCN1C(=O)C(Cc2cccc(C)c2)SC1=Nc1ccc(C(=O)O)cc1 (stereo not given) | -2.4 | 11.7 | 2.7 | 10.2 | -2.8 | 11391 | -27.1 |
| COc1ccc(NC(=O)c2ccccc2-c2ccccc2)cc1 | 11.9 | 3.9 | 5.7 | 4.0 | -0.1 | 3193 | 2.7 |
| O=C(CSCC(=O)N1CCCCC1)Nc1nc(-c2cccs2)cs1 | 3.3 | 16.9 | -7.6 | 2.0 | 5.4 | 6029 | -22.9 |
| COc1ccc(S(=O)(=O)N(C)C)cc1NC(=O)COC(=O)Cn1cnc2ccccc2c1=O | 1.9 | 2.8 | -11.2 | -0.4 | nt | 8883 | 0.4 |
| CCN1CC2C3C(=O)N(C)C(=O)C3[C@](Cc3ccccc3)(C1=O)N2C(=O)c1ccc(Br)cc1 (stereo not given in full) | -1.1 | 6.3 | 12.8 | 2.8 | nt | nt | nt |
| CC(C)c1ccc(NC(=S)N2CCCC(c3ccc(F)cc3)=N2)cc1 | 2.6 | -8.5 | -2.5 | -12.2 | -8.6 | 5142 | 0.6 |
| CC(C)c1ccc(-c2nc(N3CCCC3)nc3n[nH]c(N)c23)cc1 | 14.5 | 2.8 | 11.6 | -2.4 | 3.2 | 3262 | -1.3 |
| CC(C)N1C(=O)C(=O)N(CC(=O)N(C)c2ccccc2)C1=O | -0.3 | 5.9 | 5.9 | -1.0 | nt | 3872 | -20.0 |
| Cc1cccc(NC(=O)c2ccc(C(=O)c3ccccc3)cc2)n1 | 4.4 | 1.8 | 8.7 | 5.8 | 5.0 | 5290 | -108.8 |
| COc1ccc(Cl)cc1N(CC(=O)Nc1ccccc1SC)S(C)(=O)=O | 11.4 | 0.2 | 8.8 | 1.6 | -8.2 | 19767* | -4.7 |
| COc1ccc(C2c3ccc4ccccc4c3Oc3ncn(CCN4CCOCC4)c(=N)c32)cc1 (stereo not given) | 25.4 | -1.4 | 8.2 | -16.2 | 7.1 | 9800 | -16.2 |
| CCSCCC(NC1=CC(=O)CC(C)(C)C1)C(=O)O (stereo not given) | -1.8 | -10.7 | 5.2 | -2.1 | -9.9 | 2721 | 7.8 |
| Cc1cccc(C)c1N1CCN(c2c(C)cccc2C)CC1 | 14.4 | 3.5 | 6.9 | 13.0 | 0.3 | 4131 | -12.8 |
| Cn1cc(/C=C(\NC(=O)c2ccccc2Cl)C(=O)NCCCn2ccnc2)c2ccccc21 | -7.5 | 3.7 | -11.4 | 5.5 | -13.6 | 4087 | -7.1 |
| CCCOC(=O)C1[C@H]2C(=O)N(C(C)c3ccc(OC)cc3)C[C@]23C=C[C@H]1O3 (stereo not given in full) | nt | nt | nt | nt | 1.5 | 3249 | -18.7 |
| COc1ccc(C(C)=O)cc1CSc1nc2ccccc2c(=O)n1-c1ccccc1 | 7.5 | -2.1 | -12.6 | -0.7 | -0.4 | 2581 | -0.3 |
| O=C1CC(CC(=O)N/N=C/c2ccccc2[N+](=O)[O-])=NN1 | nt | nt | nt | nt | -12.8 | 2380 | -15.6 |
| COc1ccc(CNC(=O)COC(=O)CCn2c(C)csc2=O)cc1OC | 3.4 | -2.4 | 3.3 | 5.7 | 6.3 | 5312 | -19.8 |
| COC(=O)C(=Nc1ccccc1)/C(C(=O)C(=O)N(C)c1ccccc1)=C(/O)c1ccccc1 | 3.5 | 1.9 | 4.7 | 3.8 | nt | nt | nt |
| C/C(CC(=O)Nc1ccccc1C(F)(F)F)=N\NC(=O)c1cnccn1 | nt | nt | nt | nt | 3.2 | 5787 | -18.8 |
| NS(=O)(=O)c1ccc(Nc2nc(-c3ccc(F)cc3)cs2)cc1 | 4.6 | -2.8 | 8.0 | 7.3 | -0.2 | 4826 | -24.5 |
| COc1cc([N+](=O)[O-])ccc1NC(=O)COC(=O)CCS(=O)(=O)c1ccc(C)cc1 | -5.4 | 1.1 | 1.0 | 4.6 | -5.9 | ? | -11.6 |
| Cc1cccc(Nc2ccncc2S(=O)(=O)NC(=O)NC(C)C)c1 | 3.1 | 4.1 | 6.3 | 3.0 | -5.5 | 4138 | -18.7 |
| CN(CC(=O)Nc1cccc(F)c1)CC(=O)N1CCCCC1 | 1.6 | 4.8 | 7.2 | -0.2 | nt | 4040 | -21.4 |
| COc1ccccc1NC(=O)c1cc([N+](=O)[O-])ccc1NCCN1C(=O)CCC1=O | 0.0 | 2.7 | 10.4 | 2.1 | 5.6 | 4558 | -17.7 |
| Nc1nonc1N/N=C/c1c(O)ccc2ccccc12 | nt | nt | nt | nt | -9.4 | 3702 | -7.6 |
| CCN(CC)c1nc(SCCOC(=O)Nc2ccccc2)nc(N(CC)CC)n1 | -1.1 | -9.5 | 1.9 | 3.8 | -3.0 | 4380 | -1.9 |
| COCCn1c(SCC(=O)NC(=O)NCc2ccccc2)nc2ccccc21 | nt | 1.1 | nt | 5.3 | -15.6 | 2915 | -8.7 |
| Cc1ccn2cc(C(=O)Nc3ccccc3N3CCOCC3)nc2c1 | 7.9 | 10.1 | 10.4 | 8.1 | -6.9 | 10524 | -53.6 |
| COc1cccc(-c2nn3c(-c4ccccn4)nnc3s2)c1 | 7.2 | 11.1 | 7.4 | -6.4 | -1.8 | 19346* | -17.5 |
| COc1ccc([N+](=O)[O-])cc1N(CC(=O)N(C)C)S(C)(=O)=O | 5.1 | 6.3 | 12.1 | 11.2 | -0.9 | 4329 | -6.7 |
| CCN1C(=O)S/C(=C/c2c(OCc3ccc(C(=O)O)cc3)ccc3ccccc23)C1=O | -2.6 | 24.6 | 5.8 | -5.6 | nt | 7683 | -23.9 |
| CS(=O)(=O)N(Cc1ccccc1)c1ccc(C(=O)Nc2cccnc2)cc1 | -2.5 | 1.5 | -3.2 | -2.1 | -1.6 | 6197 | -13.5 |
| Oc1c(N=NC(=S)Nc2ccccc2F)c2ccccc2n1Cc1ccc(Cl)cc1 | nt | nt | nt | nt | 11.9 | 4324 | -0.6 |
| CC(=O)Nc1cccc(NC(=O)c2ccc(Br)cc2)c1 | 6.3 | 2.9 | 1.1 | -1.9 | 5.4 | 4321 | -47.8 |
| C[n+]1ccccc1C1CCCC/C1=N\NC(N)=S (stereo not given) | nt | nt | nt | nt | 1.0 | 3382 | -32.6 |
| CNCCc1c[nH]c2ccc(O)cc12 | 2.6 | 8.6 | 8.8 | 0.3 | -2.3 | 6590 | -10.7 |
| c1cnc2nc3c4ccccc4c4ccccc4c3nc2c1 | 11.7 | 7.1 | 6.4 | 12.4 | nt | 3732 | -8.6 |
| CCOC(=O)Cn1nnc(-c2ccc(SC)cc2)n1 | 2.2 | 4.0 | 3.3 | 2.8 | -3.8 | 4062 | -13.5 |
| COc1ccc(Cl)c2sc(NC(=O)C3=COCCO3)nc12 | -2.0 | -8.3 | 3.0 | -15.4 | -4.1 | 5418 | -34.5 |

Additional records:
| Compound | Mtb hypoxia inh growth | Sa RN4220 lethal | Mtb hypoxia inh | Sa ugtP lethal | BJeLR viability | Autofluor counter | PrP 5UTR inh |
| --- | --- | --- | --- | --- | --- | --- | --- |
| CCCCNC(=S)N(Cc1ccco1)Cc1cc2cc3c(cc2[nH]c1=O)OCCO3 | 12.2 | 3.1 | 13.8 | 3.2 | -2.9 | 2385 | -72.2 |
| O=S(=O)(Nc1ccccc1F)c1cccc(NC(=S)NCCN2CCOCC2)c1 | 3.9 | 18.3 | 14.2 | 6.1 | nt | 3720 | -15.7 |
| Cc1nn(C)cc1[C@@H]1C[C@H]2CN(Cc3cccc(Cl)c3)C(=O)[C@]23CCCN13 | 12.9 | 0.6 | 5.1 | 0.7 | 10.0 | 2887 | -9.1 |
| CCCCCCOC1(c2ccccc2)OC(=O)c2ccccc21 (stereo not given) | -1.5 | 1.2 | 6.5 | 80.9 | 11.5 | 8102 | -30.7 |
| Cc1ccc(C(=O)COC(=O)Cc2ccccc2)cc1 | -9.2 | 5.2 | -1.7 | 17.3 | -0.5 | 4983 | -21.2 |
| O=C(NCCNc1ccc([N+](=O)[O-])cc1C(F)(F)F)c1ccccc1 | 5.2 | 12.7 | -2.8 | 2.0 | 11.2 | 2533 | -21.4 |
| Cc1cccc(Cn2c(NCCO)nc3c2c(=O)n(C)c(=O)n3C)c1 | 12.6 | 6.0 | 2.9 | 3.3 | -3.3 | 6820 | -24.2 |
| Cn1c(=O)[nH]c(=O)c2c1nc(CN1CCN(Cc3ccccc3)CC1)n2CC(N)=O | 3.8 | -0.6 | 5.1 | 8.3 | 2.5 | 5638 | -14.3 |
| Cc1ccc(N2C(=O)N3[C@H](c4ccc(F)cc4)[C@@H]4C(=O)N(C5CCCCC5)C(=O)[C@@H]4[C@]3(C)C2=O)cc1 | nt | nt | nt | nt | -11.5 | 3819 | 2.1 |
| CCOc1ccc(CCNC(=O)c2nnn(CC(=O)Nc3ccc(C)cc3)c2N)cc1OCC | -4.6 | 3.8 | 9.8 | 6.7 | -2.9 | 6035 | -10.3 |
| C=CCN1C(=O)c2ccc(C(=O)OCC(=O)N(C)C3CCCCC3)cc2C1=O | -3.3 | 2.9 | -2.5 | 4.1 | -3.0 | 3557 | -17.7 |
| COCCN(C(=S)Nc1ccc(Cl)cc1OC)C1CCN(C(C)=O)CC1 | 1.2 | 0.0 | 9.6 | -0.1 | 11.2 | 5949 | -9.5 |
| O=C(CN1CCCC1=O)NC1C2CC3CC(C2)CC1C3 (stereo not given) | 5.1 | 1.8 | -7.1 | 5.2 | -10.1 | 2586 | -10.0 |
| CSC1=NSC2=NC(=O)C(=Cc3coc4ccc(O)cc4c3=O)C(=N)N12 | 0.7 | 30.5 | 10.1 | -33.3 | nt | nt | nt |
| O=C(COC(=O)c1cnc(Cl)c(Cl)c1)NCCC1=CCCCC1 | -1.5 | 2.6 | 6.4 | 7.5 | -2.3 | 4065 | -1.3 |
| COc1ccc(NC(=O)Cn2cccc2)c(OC)c1 | 6.4 | 2.1 | 8.2 | -1.2 | 1.9 | 10039 | -11.4 |
| Cc1cc2nc(SCC(=O)O)nc(C)c2cc1C | -3.0 | 5.0 | -6.3 | 15.6 | -5.9 | 7387 | -11.9 |
| C=C1CCC2C(C)(C)[C@@H](O)CC[C@@]2(C)[C@@H]1COc1ccc2ccc(=O)oc2c1 (stereo not given in full) | -5.8 | -4.6 | 7.5 | -22.0 | 2.1 | 3803 | -14.6 |

Screening results as filed in PubChem BioAssay.
